Screening results deposited in PubChem BioAssay by National Center for Advancing Translational Sciences (NCATS).
TRPML1 blocker – inhibitors of human TRPML1 channel; Q9GZU1; TRPML1-inducible cells, Ca2+ dye fluorescence, FDSS; hits give low values; inhibition of EC80 agonist-evoked calcium signal; activity change, negative = inhibition, % (no concentration beside the values); actives 0.02% (n = 390,000); AID 624415; in the data active means activity change below about -50%; inconclusive means about -30% to -50%; inactive means above about -30%;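 note: stimulus is agonist 54-4 at its EC80 concentration; % is set by controls: 0 for no effect and ±100 for the full control effect; compound concentration not given in the record; the text of the record puts the active cut at -80%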
Target sequence (Q9GZU1 whole entry, looked up): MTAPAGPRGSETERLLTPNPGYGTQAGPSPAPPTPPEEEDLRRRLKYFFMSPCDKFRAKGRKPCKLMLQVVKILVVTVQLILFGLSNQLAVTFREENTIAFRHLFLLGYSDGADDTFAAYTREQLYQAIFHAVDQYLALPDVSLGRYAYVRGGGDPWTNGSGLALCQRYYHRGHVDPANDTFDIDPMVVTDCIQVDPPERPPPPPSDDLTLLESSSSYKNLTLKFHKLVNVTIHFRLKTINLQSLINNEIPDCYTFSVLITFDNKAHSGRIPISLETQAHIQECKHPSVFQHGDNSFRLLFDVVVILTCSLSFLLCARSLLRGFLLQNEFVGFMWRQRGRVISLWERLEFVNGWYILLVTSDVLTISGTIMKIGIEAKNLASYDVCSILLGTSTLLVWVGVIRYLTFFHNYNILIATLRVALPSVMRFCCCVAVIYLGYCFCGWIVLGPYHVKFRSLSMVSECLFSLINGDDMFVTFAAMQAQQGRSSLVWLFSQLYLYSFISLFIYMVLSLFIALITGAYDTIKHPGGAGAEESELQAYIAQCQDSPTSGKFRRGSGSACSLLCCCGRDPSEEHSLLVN
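Tet-induced TRPML1-DL cells loaded with Ca8 no-wash calcium dye were read kinetically on FDSS. Compound addition was followed by EC80 agonist 54-4 (4 uM final); inhibition was read over 110 s.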
TRPML1 ag – human mucolipin-1 channel agonism; activation, % (concentration not given with the values); actives 0.12% (n = 410,000); Q9GZU1; TRPML1-expressing cells, Ca2+ dye fluorescence, FDSS; host cell line not named in the record; reference of the full effect not given here; in the data active = activation above about 50%; inconclusive = about 30% to 50%; inactive = below about 30%; note: 0% is about no effect; the text of the record puts the active cut at 80%
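Tetracycline-induced TRPML1-DL cells are seeded and incubated overnight before loading with a no-wash Ca2+ dye and quencher. Agonist activity is taken from the 110 s fluorescence read following compound pin-transfer on an FDSS, before EC80 54-4 challenge.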
Six1-Eya2 blk – Six1/Eya2 interaction inhibition; activity change, % (concentration not given with the values); AlphaScreen GST-Six1/His-Eya2 binding, biochemical; hits give low values; control for the full effect not named in the record; actives 0.56% (n = 360,000); Q15475+O00167; in the data active = activity change below about -65%; inconclusive = about -30% to -65%; inactive = above about -30%; note: % is set by controls: 0 for no effect and ±100 for the full control effect
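Homogeneous AlphaScreen proximity assay pairing GST-Six1 with His-tagged Eya2 (added as 5X mix: 250 nM and 500 nM) in 50 mM Tris pH 8.0, 300 mM NaCl, 1 mM TCEP. Glutathione donor and nickel acceptor beads; 1 h, 37 °C, dark.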
TRPV1 potentiator – potentiators of human vanilloid receptor 1 (TRPV1). actives 0.02% (n = 320,000). Q8NER1. potentiation, % at 8.33 µM. TRPV1-expressing cells, Fluo-8 calcium influx, capsaicin EC20 potentiation; host cell line not named in the record; control for the full effect not named in the record; active means potentiation above 80%; inconclusive means 30% to 80%; inactive means below 30%; note: 0% is about no effect
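Cells expressing TRPV1 were dye-loaded with Fluo-8 and read kinetically: 10 s baseline, 3 min after compound (agonist portion), then 2 min after EC20 capsaicin (allosteric enhancer portion). Calcium-bound dye fluorescence at 480/520 nm.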
CtBP-E1A inh – blocks the CtBP interaction with E1A; actives 0.49% (n = 340,000); AlphaScreen GST-E1A/His-CtBP binding, 1536-well; hits give low values; control for the full effect not named in the record; activity change, % (no concentration beside the values); AID 651724; in the data active means activity change below about -65%; inconclusive means about -30% to -65%; inactive means above about -30%; note: % is set by controls: 0 for no effect and ±100 for the full control effect; compound concentration not given in the record
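AlphaScreen with 125 nM GST-E1A and 125 nM His-CtBP (5X stocks) in Tris pH 8.0, 300 mM NaCl, BSA, Tween 20, TCEP. Compounds preincubated 2 h at 37 deg C, then glutathione donor/nickel acceptor beads added for 1 h at 37 deg C in dark.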
D2 potentiator – positive allosteric modulators of human D2 dopamine receptor | DiscoveRx D2 beta-arrestin cells, luminescence, 90 min; 100% = 57 uM dopamine signal | potentiation, % (concentration not given with the values) | actives 0.23% (n = 360,000) | AID 624464; active = potentiation of 50% or more; inconclusive = 30% to 50%; inactive = 30% or less;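 note: compound concentration not given in the record; tested on top of an EC20 dose of dopamine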
Target sequence (P14416 whole entry, looked up): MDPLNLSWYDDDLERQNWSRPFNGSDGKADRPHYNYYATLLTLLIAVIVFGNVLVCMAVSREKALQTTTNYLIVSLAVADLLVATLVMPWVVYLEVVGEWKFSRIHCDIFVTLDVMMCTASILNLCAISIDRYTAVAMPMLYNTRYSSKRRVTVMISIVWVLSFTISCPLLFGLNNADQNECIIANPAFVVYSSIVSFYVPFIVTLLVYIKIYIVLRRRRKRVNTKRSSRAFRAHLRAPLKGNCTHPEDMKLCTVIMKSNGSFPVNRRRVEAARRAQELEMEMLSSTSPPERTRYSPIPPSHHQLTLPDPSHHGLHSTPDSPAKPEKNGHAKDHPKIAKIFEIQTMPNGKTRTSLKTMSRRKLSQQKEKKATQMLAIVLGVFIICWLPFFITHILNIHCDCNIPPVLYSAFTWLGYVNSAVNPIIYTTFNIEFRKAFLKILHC
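PathHunter D2 cells, attached overnight at 37 deg C, received compound in DMSO plus dopamine at EC20 (50 nM final) for 90 min at 37 deg C. Beta-arrestin recruitment was read as luminescence after 1 h with detection reagent at ambient temperature.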
* marks the source's active call; other numbers are inactive results; ? = inconclusive; / = no result given; & = joins results of further samples.

SMILES	TRPML1 blocker	TRPML1 ag	Six1-Eya2 blk	TRPV1 potentiator	CtBP-E1A inh	D2 potentiator
Cc1ccc(S(=O)(=O)c2cc3c(=O)n4ccccc4nc3n(C3CCCC3)c2=N)cc1	-1	2.0	-6	4	-25	0
O=C(Nc1nnc(C2CCCO2)s1)c1ccc(Br)cc1 (configuration not stated)	37	1.9	3	-11	7	-3
COc1cccc(-n2cnc3sc(C)c(C)c3c2=O)c1	21	0.1	5	-2	6	-11
CCC(C)[C@H](NC(=O)N1CCCCC1)C(=O)OC (some centres not stated)	-10	-0.3	2	-4	9	14
COc1ccccc1N(C)S(=O)(=O)c1ccc(C(=O)OCC(=O)c2c[nH]c3ccccc23)cc1	0	1.5	-18	16	-6	-20
Cc1ccc(CNCCNCCO)s1	-2	-1.2	-14	3	5	-17
Nc1cc2c(cc1Cl)-c1ccccc1C2	3	1.9	-15	/	-2	-15
O=C(N/N=C1\NC(=O)C(CO)(CO)S1)c1ccccc1	-10	-0.5	-1	6	9	3
CC(OC(=O)C1=Cc2ccccc2OC1)C(=O)NC1CCCC1 (configuration not stated)	4	0.5	-10	8	-27	-7
CCCc1cc(=O)oc2cc(C)cc(O)c12	-7	1.7	1	?	-2	-7
Cc1ccc(-n2nnnc2SCC(=O)N2CC(=O)Nc3ccccc32)cc1	26	-1.2	7	-5	0	-6
CCOC(=O)C1=C(COC(=O)C2CC(=O)N(c3ccc(CC)cc3)C2)NC(=O)NC1C (configuration not stated)	0	-1.6	-4	-2	/	-4
CC1CCCN(CCCNC(=O)C2CC(=O)N(CCc3ccccc3)C2)C1 (configuration not stated)	19	-0.1	0	2	0	-11
O=C(NC1CCCc2ccccc21)c1n[nH]c(=O)c2ccccc12 (configuration not stated)	-26	-1.2	10	-5	-7	-9
COc1cccc(Oc2nc(-c3ccncc3)nc3ccccc23)c1	41	1.3	5	-2	-2	-3
CCC1=NC(c2ccccc2)N(O)C1(C)C (configuration not stated)	10	-1.0	-3	7	7	-14
O=C(Cn1cnc2cc([N+](=O)[O-])ccc2c1=O)Nc1cccc2ccccc12	-6	1.1	-21	2	-7	1
C=CC[C@@H](CC(=O)N[C@H](CO)Cc1ccccc1)C(=O)N[C@@H](C)COC(=O)[C@@H](CC=C)CC(=O)OC(C)(C)C	32	-0.3	-2	/	6	-6
O=C(CN1C(=O)COc2ccccc21)N1CCN(C2CCCCC2)CC1	11	-0.1	2	-10	3	-12
COc1ccccc1N1CCN(C2CCCN(C(=O)C3=NN(C)C(=O)CC3)C2)CC1 (configuration not stated)	-12	0.1	3	-5	13	-27

Rewritten in markdown: 4 of the compounds above.
| compound | TRPML1 blocker | TRPML1 ag | Six1-Eya2 blk | TRPV1 potentiator | CtBP-E1A inh | D2 potentiator |
| --- | --- | --- | --- | --- | --- | --- |
| CC(OC(=O)C1=Cc2ccccc2OC1)C(=O)NC1CCCC1 (configuration not stated) | 4 | 0.5 | -10 | 8 | -27 | -7 |
| CCCc1cc(=O)oc2cc(C)cc(O)c12 | -7 | 1.7 | 1 | ? | -2 | -7 |
| Cc1ccc(-n2nnnc2SCC(=O)N2CC(=O)Nc3ccccc32)cc1 | 26 | -1.2 | 7 | -5 | 0 | -6 |
| CCOC(=O)C1=C(COC(=O)C2CC(=O)N(c3ccc(CC)cc3)C2)NC(=O)NC1C (configuration not stated) | 0 | -1.6 | -4 | -2 | / | -4 |

(next part)
SMILES	TRPML1 blocker	TRPML1 ag	Six1-Eya2 blk	TRPV1 potentiator	CtBP-E1A inh	D2 potentiator
CCc1ccc(NC(=O)C(=S)NC2CCCCC2)cc1	-3	1.1	17	18	2	-5
O=C(NCCN1CCOCC1)c1ccc(=O)oc1	19	-0.5	4	-1	3	4
O=C(Nc1ccnc(-c2ccncc2)n1)c1ccccc1Cl	10	1.0	2	6	/	1
Cc1ccc(C(=O)NNC(=S)Nc2cccc3ccccc23)s1	0	-0.3	-9	7	-13	-41
CN(NC1CC(=O)N(c2ccccc2)C1=O)c1ccccc1 (configuration not stated)	4	-0.8	20	0	24	-18
COC(=O)[C@@]12CCCCN1[C@H](c1ccc(-c3ccc(Cl)c(Cl)c3)c(OC)c1)[C@@H]1C(=O)N(C)C(=O)[C@@H]12	-9	-0.3	4	/	4	-9
CCCc1cc(O)c2c(C)cc(=O)oc2c1	-12	5.8	1	-11	18	-7
C/C(=N/NS(=O)(=O)c1ccc(Br)cc1)c1ccc(NC(=O)c2ccc(C)o2)cc1	-10	0.6	-2	1	-6	-4
Cc1cc(NC(=O)c2ccc(Cl)c(S(=O)(=O)N3CCOCC3)c2)no1	-6	-0.4	4	-12	2	-1
Cc1cc2nc(-c3cccnc3SCC(=O)NCc3ccco3)[nH]c2cc1C	17	0.0	-14	11	-10	-4
COc1ccc(-c2nnc(SCCc3ccccc3)n2N)cc1	3	-0.5	15	-4	2	-9
Cc1cccc(Oc2c(C=O)c3ccccc3n2C)c1	10	-0.5	8	-1	16	11
O=C(Nc1nncs1)c1ccc(F)c(S(=O)(=O)N2CCCCC2)c1	9	-0.3	-2	1	0	8
COc1ccc(-n2c(Cc3cc(=O)[nH]c(=O)[nH]3)nnc2SCc2ccccc2)cc1	9	-0.4	-11	/	-1	-7
COc1ccc(NC(=O)COn2nnc3ccc(Cl)cc32)cc1OC	17	1.3	-2	16	11	-27
S=c1[nH]nc(-c2ccn[nH]2)n1-c1ccccc1Cl	24	-0.3	4	-10	0	-4
Cc1ccc(S(=O)(=O)NC(=NCC(=O)O)c2ccc(F)cc2)cc1	9	1.1	6	1	8	-6
CC(=O)Nc1cc(-c2ccc(F)cc2)cn2c(-c3ccc(S(C)(=O)=O)cc3)cnc12	/	-0.3	0	/	-1	-5
COCC(=O)NNC(=O)c1ccc(OC)cc1	3	-0.3	5	8	-15	7
COc1ccc(C(CC(=O)N2CCN(C)CC2)NC(=O)C(F)(F)F)cc1 (configuration not stated)	19	0.9	-3	7	/	-3
CCCOc1ccc2oc(=O)c3c(c2c1)CCCN3C(=O)CN1CCN(c2ncccn2)CC1	4	-0.9	3	0	1	-9
CN(C)C1(CNC(=O)C2CCN(S(=O)(=O)c3ccccc3C(F)(F)F)CC2)CCCCC1	34	0.4	6	2	1	-4
Cc1c(Cl)cnc(NC(=O)COC(=O)c2cccs2)c1Cl	-10	0.7	1	-19	4	0
O=C(CN1C(=O)NC2(CCc3ccccc32)C1=O)Nc1cccc(F)c1 (configuration not stated)	-8	0.9	6	7	-13	0
CCCn1c(SCC(=O)Nc2cccc(S(=O)(=O)NC3=NCCCCC3)c2)nc2ccccc2c1=O	8	6.4	-20	3	/	-2
Cc1ccc(OC(C)C(=O)N2CCc3ccccc32)cc1 (configuration not stated)	1	1.8	12	1	-2	-13
Cc1ccc(/C=N/c2sc3c(c2C(N)=O)CCCC3)o1	1	1.6	-20	2	-10	3
O=C(c1cc2sccc2n1Cc1ccccc1)N1CCc2ccccc21	54	2.4	-5	?	1	-21
Cc1ccc(/C=C/C(=O)N2CC(=O)Nc3ccccc32)o1	3	-0.8	-7	5	0	-3
Clc1ccc2c(c1)-c1ccccc1C1=NCCN12	3	0.1	?	/	-9	-21
O=C(NC12CCC(O)C(SC1)/C2=N/O)c1ccccc1 (configuration not stated)	23	-0.4	4	1	0	-3
CC1CCCN(C(=O)CN2C(=O)C(C)Oc3ccccc32)C1 (configuration not stated)	0	0.9	1	?	8	3
CC(C)(C)CC(=O)Nc1ccc(Nc2ccccc2)cc1	-6	3.4	-5	17	-3	-12
CCOC(=O)c1cc2c(ccc3ccccc32)oc1=O	-5	3.7	-22	-20	-2	-4
O=C(c1ccc(Cl)cc1)C1CCCN(Cc2cccn2-c2ccccn2)C1 (configuration not stated)	-9	0.0	-18	22	-14	-24
COc1cccc(-c2cc(C(F)(F)F)nc(N3CCN(c4ccccc4)CC3)n2)c1	12	-0.9	2	2	-2	-9
CCOc1cc(CNn2nnnc2N)cc(Cl)c1OCC(=O)NC(C)(C)C	9	-0.3	17	6	25	1
Cc1ccc2c(c1)C(=O)C(=O)N2Cc1ccc(F)cc1	1	-0.5	-1	/	0	-113
Cc1cccnc1NC(=O)c1csnn1	-6	0.9	1	4	/	-4
CC1Cc2cc(/C=C3/SC(N4CCC(C(N)=O)CC4)=NC3=O)ccc2O1 (configuration not stated)	34	0.4	-3	12	-8	-3
COCC(=O)Nc1cc([N+](=O)[O-])ccc1OC	-24	-0.4	4	2	4	-1
Cc1c(C(=O)N2CCCC2)c(S(=O)(=O)Nc2ccccc2)c(C)n1C	53	-0.3	4	1	5	-1
Cc1nn(C(C)C(=O)N2CCN(c3ccccn3)CC2)c(=O)c2cc3occc3n12 (configuration not stated)	10	0.5	-5	-2	0	-3
CCc1nc(SCC(=O)Nc2nc3c(s2)CCCC3)c2ccccc2n1	4	0.7	-1	-3	5	-12
Cc1ccc(C(=O)N/C(=C\c2cn(C)c3ccccc23)C(=O)OCCN(C)C)cc1	16	0.5	5	15	2	-17
COC(=O)C(Cc1ccccc1)NC(=O)CCNC(=O)c1ccc(Br)cc1 (configuration not stated)	-8	-0.3	2	-13	6	-5
COc1ccc(CN2CCN(C(=O)c3cccs3)CC2)cc1	-6	-0.5	11	3	-8	5
CCn1cc([N+](=O)[O-])c(C(=O)N2CCCC2)n1	-5	0.0	0	-6	-1	-2
O=C(CN1CCN(c2ccccc2O)CC1)Nc1ccc(S(=O)(=O)N2CCCCCC2)cc1	-5	-0.3	-8	?	0	-1
Cc1cc(F)c(F)c(C(=O)N2CCC(C)CC2)c1Cl	6	6.0	5	8	6	0
NC(=O)CNc1n[nH]c(=S)[nH]c1=O	-14	-0.2	-8	-17	0	-3
CCOC(=O)CNC(=O)c1cc(-c2ccc3c(c2)OCCO3)oc1C	13	-0.4	-3	-1	3	17
Cc1cccc(OCCC(=O)Nc2ccc(Cl)cc2F)c1	-5	-0.3	1	-5	14	-7
COc1cc(/C=N/Nc2nc(C)nc3c2cnn3-c2ccccc2)ccc1O	-4	0.9	-67*	6	-77*	-1
Cc1ccc(S(=O)(=O)C2(C(=O)NC3CCCCC3)CC2)cc1	18	0.5	0	-9	-3	-8
CCOC(=O)CC1C(=O)NCCN1Cc1ccc(OC)c(OC)c1 (configuration not stated)	10	-0.6	9	1	-18	9
O=C(CN1CCN(C(=O)c2ccc(OCc3cn4ccccc4n3)cc2)CC1)Nc1cccc(F)c1	-12	-0.2	2	/	-1	-1
O=C(NCc1cccnc1)OC1CC2CC1[C@H]1CCCCN1C2=O (some centres not stated)	/	-0.3	10	/	-15	/
COc1ccc(NS(=O)(=O)c2ccc(-c3coc(C)n3)cc2)c(OC)c1	3	-1.6	-3	13	2	-10
CCCOc1ccc(CNC(=O)C2CCN(c3nn4c(=O)cc(C)nc4s3)CC2)cc1	49&-12	2.6&-0.3	0	-4	/	-4
